Screens deposited in PubChem BioAssay by several laboratories.
MEKK2 WT-MEK5 – modulators of MEK5 binding to wildtype MEKK2, primary screen, biochemical, multiplex bead flow cytometry, Alexa488-MEK5 | Alexa488-MEK5 binding to MEKK2 WT; actives lie on both sides | Mitogen-activated protein kinase kinase kinase 2 (Homo sapiens), Q9Y2U5 | 290,000 compounds, 1.1% hits | binding response (% of control), % at 10 µM | AID 1531, 2009; in the data active = binding response below about 67% or above about 130%
MEKK3 PB1 HTS – modulators of MEKK3-MEK5 PB1 binding, primary screen, biochemical, wildtype MEKK3, multiplex bead flow cytometry, Alexa488-MEK5. Mitogen-activated protein kinase kinase kinase 3 (Homo sapiens), Q99759. bead-based flow cytometry, Alexa488-MEK5 binding to MEKK3; actives lie on both sides; 0 = blocked by unlabeled MEK5, 100 = vehicle. binding response (% of control), % at 10 µM. 290,000 compounds, 1.4% hits;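 active = binding response more than 3 SD above or below the average of its plate-row segment, actives on both sides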;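 also: Alexa488 bead fluorescence after subtracting the streptavidin-only scavenger bead signal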
NALP1 yeast inh – NALP1 inflammasome inhibitors in reconstituted yeast, colorimetric, S. cerevisiae, triplicate retest. S. cerevisiae NALP1/ASC/caspase-1 growth, X-gal OD620, 72 h. inhibition, % at 10 µM. 280,000 compounds, 0.61% hits. AID 2071, 2009; in the data active = inhibition mostly above about 24%, no sharp cut-off; inactive = mostly below about 32%; also: some compounds called inactive have numbers as strong as hits
MEKK2mut PB1 HTS – MEK5 binding signal on mutant MEKK2 PB1, primary screen, biochemical, multiplex bead flow cytometry, Alexa488-MEK5; 290,000 compounds, 0.35% hits; percent response, % at 10 µM; Alexa488-MEK5 binding to MEKK2 mutant; in the data active = percent response above about 24%, passing the limit was not always enough; also: inactives centre near 1; some results filed as inactive read as strong as hits; reference of the scale not given here
OXTR ag – human OXTR agonists, primary screen, fluorescence, CHO-OTR cells, Fluo-8 calcium; activation, % at 3 µM; Fluo-8 calcium fluorescence; normalized: DMSO 0%, oxytocin 100%; AID 2435, 2010; Oxytocin receptor (Homo sapiens), P30559; 320,000 compounds, 0.32% hits;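 active = activation above the mean of all tested compounds plus 3 SD, cutoff set per screening run, cut at about 20% in these data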;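 also: peak over basal fluorescence ratio from a 100 s FLIPR kinetic read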
Target sequence (P30559 whole entry, looked up): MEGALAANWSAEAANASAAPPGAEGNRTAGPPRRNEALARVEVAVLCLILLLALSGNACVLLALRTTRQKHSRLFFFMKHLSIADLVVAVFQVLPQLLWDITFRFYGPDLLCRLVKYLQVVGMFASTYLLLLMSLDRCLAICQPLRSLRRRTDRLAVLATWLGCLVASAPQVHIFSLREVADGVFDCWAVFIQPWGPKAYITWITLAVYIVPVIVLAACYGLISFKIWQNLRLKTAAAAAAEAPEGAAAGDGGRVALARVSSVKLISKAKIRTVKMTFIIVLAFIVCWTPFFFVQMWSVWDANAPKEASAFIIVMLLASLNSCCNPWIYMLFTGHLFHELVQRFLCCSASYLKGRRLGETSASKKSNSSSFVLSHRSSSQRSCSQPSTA
Active calls of the source: *; nt = no result given.

| canonical_smiles | MEKK3 PB1 HTS | MEKK2mut PB1 HTS | MEKK2 WT-MEK5 | OXTR ag | NALP1 yeast inh |
| --- | --- | --- | --- | --- | --- |
| COc1cccc(C(=O)Nc2cc3c(cc2N2CCCC2)n(C)c(=O)n3C)c1 | 96 | -5 | 93 | -2.6 | 18 |
| COc1ccc(Oc2c(Cl)cnn(-c3ccc(F)cc3)c2=O)cc1 | 105 | 8 | 105 | -2.4 | 39 |
| O=C(O)C1CCN(S(=O)(=O)/C=C/c2ccccc2)CC1 | 96 | 4 | 109 | 0.1 | 2 |
| COCCCNC(=O)/C=C1\Sc2ccccc2N(Cc2ccccc2F)C1=O | 91 | -15 | 87 | -0.1 | 12 |
| Cn1c(SCC(=O)c2ccc(O)c(O)c2)nnc1-c1ccccc1 | 100 | 3 | 104 | nt | 0 |
| Cc1ccccc1C(=O)N/N=C/c1ccc(Sc2ccccn2)o1 | 98 | 0 | 96 | 2.1 | -26 |
| Cc1cc(C(=O)N2CCC(Cc3ccccc3)CC2)ccc1[N+](=O)[O-] | 101 | 0 | 97 | -1.8 | -6 |
| COc1cccc(N2CCN(CC(=O)Nc3ccc(-n4cnnn4)cc3)CC2)c1 | 93 | -3 | 93 | -0.6 | 4 |
| CCN(CC)CCNC(=O)CCc1c(C)nc2c(c(C)nn2-c2ccc(C)cc2)c1C | 99 | 1 | 111 | nt | 12 |
| CC(C)COc1nc2c(c(=O)n(C)c(=O)n2C)n1C | 107 | 7 | 98 | -0.3 | 15 |
| Cc1ccc(/C=C/C(=O)c2ccccc2)cc1 | 95 | 2 | 98 | -1.5 | -11 |
| COc1ccc(Cn2cc(C(=O)O)c(=O)c3ccccc32)cc1 | 102 | -1 | 99 | 0.7 | -10 |
| Cc1ccc2nc(-c3ccc(NS(=O)(=O)c4ccc(F)cc4)cc3)sc2c1 | 101 | -1 | 101 | -0.7 | 18 |
| OC1(c2ccccc2)CCN(Cc2ccccc2)CC1 | 116 | -1 | 103 | 0.5 | 16 |
| COC(=O)[C@@]1(Cc2ccc(F)cc2)[C@H]2c3cc(C(=O)N(C)C)n(Cc4ccccc4)c3C[C@H]2CN1C(=O)c1ccccc1 | 100 | -4 | 96 | 1.7 | 30 |
| CCCCNc1ccc(C(=O)O)cc1 | 99 | 6 | 103 | 0.4 | 24 |
| CC(=O)Nc1ccc(Oc2ncccn2)cc1 | 105 | 1 | 105 | 0.1 | -1 |

Some entries already given, limited to MEKK2 WT-MEK5 and MEKK2mut PB1 HTS:
Compound | MEKK2 WT-MEK5 | MEKK2mut PB1 HTS
Cc1ccc(/C=C/C(=O)c2ccccc2)cc1 | 98 | 2
COc1ccc(Cn2cc(C(=O)O)c(=O)c3ccccc32)cc1 | 99 | -1
Cc1ccc2nc(-c3ccc(NS(=O)(=O)c4ccc(F)cc4)cc3)sc2c1 | 101 | -1

Seven consecutive compounds out of the list so far, for reference:
| canonical_smiles | MEKK3 PB1 HTS | MEKK2mut PB1 HTS | MEKK2 WT-MEK5 | OXTR ag | NALP1 yeast inh |
| --- | --- | --- | --- | --- | --- |
| COc1ccc(Oc2c(Cl)cnn(-c3ccc(F)cc3)c2=O)cc1 | 105 | 8 | 105 | -2.4 | 39 |
| O=C(O)C1CCN(S(=O)(=O)/C=C/c2ccccc2)CC1 | 96 | 4 | 109 | 0.1 | 2 |
| COCCCNC(=O)/C=C1\Sc2ccccc2N(Cc2ccccc2F)C1=O | 91 | -15 | 87 | -0.1 | 12 |
| Cn1c(SCC(=O)c2ccc(O)c(O)c2)nnc1-c1ccccc1 | 100 | 3 | 104 | nt | 0 |
| Cc1ccccc1C(=O)N/N=C/c1ccc(Sc2ccccn2)o1 | 98 | 0 | 96 | 2.1 | -26 |
| Cc1cc(C(=O)N2CCC(Cc3ccccc3)CC2)ccc1[N+](=O)[O-] | 101 | 0 | 97 | -1.8 | -6 |
| COc1cccc(N2CCN(CC(=O)Nc3ccc(-n4cnnn4)cc3)CC2)c1 | 93 | -3 | 93 | -0.6 | 4 |

These rows are one share of the data; rates above refer to the full screens.
